# Screens from PubChem BioAssay.
# PrP 5UTR inh: inhibition of PrP 5' UTR reporter expression. cell-based PrP 5' UTR mRNA reporter, plate reader. inhibition, % (concentration not given with the values). 340,000 tested, 0.35% active;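 active means every replicate at 50% or more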;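 further: 0 = median of the neutral control wells; tested in H4 reporter cells; numbers are from one replicate; inactives centre near -14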
# Bead autofluor: counter-screen for toxin protease inhibitors: compound fluorescence; compound autofluorescence counterscreen, microsphere flow cytometry; active compounds read high; fluorescence intensity (concentration not given with the values); 360,000 tested, 3.1% active; AID 624483;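 active means at least 3 SD above the mean of all compounds, about 16000 in these data; inconclusive means too few beads counted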;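 further: 100 nL of 1 mM stock went into each well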
# BJeLR lethal: BJeLR cell viability loss. BJeLR (HRASV12) viability, CellTiter-Glo ATP luminescence, 48 h; reference of the scale not given here. inhibition, % (no concentration beside the values). 300,000 tested, 0.17% active. AID 1554;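 active means replicate mean above 50%; inconclusive means above 50% but judged a plate artefact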;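 further: 50 nL library stock added to about 25 µL; numbers are from one replicate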
# Sa ugtP lethal: kills S. aureus RN4220 lacking UgtP | S. aureus RN4220 ugtP deletion, OD600 growth, 16 h; some inactives read as strong as hits | growth inhibition, % (concentration not given with the values) | 330,000 tested, 0.54% active | AID 1259309;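 active means z-score under -3 and OD600 up to 0.15 on both plates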;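 further: plate controls were untreated wells for no effect and antibiotic for full effect; wells of about 80 µL received 100 nL stock; the first replicate is given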
# Sa RN4220 lethal: S. aureus RN4220 growth inhibition | OD600, 16 h | inhibition, % (no concentration beside the values) | 330,000 tested, 0.33% active | AID 1259311;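 active means z-score of -3 or lower and OD600 up to 0.18 on both plates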;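 further: plate controls were untreated cells for no effect and reference antibiotic for full effect; stock transfer was 100 nL into about 80 µL; one replicate is shown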
# Mtb hypoxia rep: reduces hypoxia-regulated biosensor signal in M. tuberculosis; M. tuberculosis hypoxia-regulated fluorescent reporter, fluorescence; fluorescence inhibition, % (concentration not given with the values); 300,000 tested, 0.1% active;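 active means 35 to 45% if threefold the growth effect, above 45% if 1.5-fold the growth effect; inactive means the rest, general growth blockers included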;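 further: wells of about 50 µL received 100 nL stock; 0% = vehicle wells and 100% = reference inhibitor wells; whole bacteria with a GFP reporter of the hypoxia response; strong numbers were not always called active; many hits fall short of the cut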
# Mtb hypoxia rep growth: further read-out of Mtb hypoxia rep, marked with its call; growth inhibition, %; measured here: M. tuberculosis growth (absorbance);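 0% = vehicle and 100% = reference antibiotic; read after six days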
# Numbers without * were called inactive; ? = inconclusive; nt = not tested or not shown; & = joins results of further samples.
1	CN(CCc1ccccn1)C(=O)c1cc(COc2ccc(F)cc2F)on1
2	Cc1ccc(-c2csc3ncn(CC(=O)NCC(c4ccco4)N4CCCC4)c(=O)c23)cc1 (configuration not stated)
3	O=C(Nc1ccccc1-c1ccccc1NC(=O)c1ccco1)c1ccco1
4	CCOC(=O)c1sc(NC(=O)c2cccc(S(=O)(=O)N3CCN(C)CC3)c2)cc1C
5	O=C(O)c1cc([N+](=O)[O-])c(NCCC2=CCCCC2)c([N+](=O)[O-])c1
6	CCCNC(=O)CCCN1C(=O)c2ccccc2Sc2ncccc21
7	CCC(C(=O)NC1CCCC1)N(C(=O)Cn1nnc(-c2ccc(C)o2)n1)c1ccc(F)cc1 (configuration not stated)
8	Cc1cnc(C(=O)OCC(=O)Nc2cc(S(=O)(=O)N3CCCCC3)ccc2Cl)cn1
9	CCCCCCC(Cl)(Cn1ccnc1)c1ccccc1 (configuration not stated)
10	C=CCNC(=O)c1ccc2c(=O)n(Cc3ccccc3OC)c(=S)[nH]c2c1

Compound	1	2	3	4	5	6	7	8	9	10
Sa ugtP lethal	3	4	-7	-3	-4	-2	10	8	13	-2
Bead autofluor	6031	8367	3324	3289	4393	3636	3533	2734	3042	4068
Mtb hypoxia rep growth	4	1	12	nt	-4	3	10	1	0	12
BJeLR lethal	-1	nt	-7	12	9	1	-9	5	-3	1
Mtb hypoxia rep	-6	7	8	nt	-5	-9	5	-4	-4	4
Sa RN4220 lethal	2.9	6.4	-8.9	-2.0	8.4	0.8	-2.0	-1.3	5.2	-0.1
PrP 5UTR inh	-7	-30	-13	-2	-23	-25	-21	-20	-12	-10

11	CCCOc1ccc(/C=N/Nc2cccc([N+](=O)[O-])c2)c(O)c1
12	CCOC(=O)c1cnn(-c2ccc([N+](=O)[O-])cc2)c1N
13	O=c1oc2ccccc2c(Nc2cccc3ccccc23)c1[N+](=O)[O-]
14	CC(=O)Nc1ccc(C(=O)OCC(=O)N2CCN(C(=O)c3ccco3)CC2)cc1
15	c1ccc2[nH]c(NCCCN3CCOCC3)nc2c1
16	CCc1ccc(CN(C)C(=O)C2CCC(=O)N(Cc3cccc(OC)c3)C2)nc1 (configuration not stated)
17	CC(C)NC(=O)N(C)CC1Oc2ccc(NC(=O)Nc3ccccc3)cc2C(=O)N(C(C)CO)CC1C (configuration not stated)
18	CCn1c2ccccc2c2cc(NC(=O)COc3ccc(OC)cc3)ccc21
19	FC(F)Oc1ccc(-n2cc(-c3ccc(Cl)cc3)[n+]3c2CCCCC3)cc1
20	COc1ccccc1OCc1ccc(C(=O)NCC2CCCO2)o1 (configuration not stated)

Compound	11	12	13	14	15	16	17	18	19	20
Sa ugtP lethal	nt	6	10	5	-5	15	-2	-9	12	-1
Bead autofluor	7929	4358	2967	2903	24547*	3968	nt	9165	5983	16085
Mtb hypoxia rep growth	nt	11	nt	-2	17	3	8	-4	8	-10
BJeLR lethal	-7	4	-2	nt	6	7	nt	-4	1	4
Mtb hypoxia rep	nt	0	nt	-2	7	-5	6	2	4	-1
Sa RN4220 lethal	nt	3.2	20	5.3	5.3	6.0	2.2	2.4	4.1	0.3
PrP 5UTR inh	-101	-55	6	2	-2	-13	nt	-1	-15	-6

21	CC(O)C(=O)NN=Cc1cccc(Cl)c1Cl (configuration not stated)
22	CCCCN1CC[C@H]2C=CC[C@@H](C(=O)N3CCN(c4ccccc4)CC3)[C@H]2C1=O
23	Cc1n[nH]c(=O)nc1N1CCN(c2ccccc2)CC1
24	Cc1nc2c(Br)cc(Br)cc2cc1O
25	CCOc1ccc(NC(=O)c2ccc(NS(=O)(=O)c3cccs3)cc2)cc1
26	Cc1ccc(NC(=O)C(C)SCc2nc3sc(C)c(C)c3c(=O)[nH]2)nc1 (configuration not stated)
27	N#Cc1ccc(NC(=O)Nc2ccc(Oc3ccc(NC(=O)Nc4ccc(C#N)cc4)cc3)cc2)cc1
28	Nn1c(C2COc3ccccc3O2)n[nH]c1=S (configuration not stated)
29	Cc1ccc(-c2[nH]ncc2/C=N/n2c(C)nc3ccccc3c2=O)cc1
30	Oc1ccc2ccccc2c1C=Nc1cc(C(F)(F)F)ccc1N1CCCC1

Compound	21	22	23	24	25	26	27	28	29	30
Sa ugtP lethal	-3	nt	9	36	5	1	12	-6	nt	95*
Bead autofluor	nt	4021	2137	2424	4708	?	3544	4715	3293	3322
Mtb hypoxia rep growth	5	nt	nt	nt	1	12	9	7	nt	10
BJeLR lethal	nt	3	-2	3	-3	2	2	-2	0	-1
Mtb hypoxia rep	8	nt	nt	nt	-8	-3	-6	-7	nt	14
Sa RN4220 lethal	4.1	nt	2.6	35	-4.5	-0.8	14	-3.1	nt	-5.4
PrP 5UTR inh	nt	-2	-10	8	-7	-14	-2	-13	-2	-9

31	Cc1ccc(C)c(Nc2ncnc(N)c2[N+](=O)[O-])c1
32	COc1ccc(-c2cc(C(F)(F)F)n3nc(C(=O)NCCCn4ccnc4)cc3n2)cc1
33	CCS(=O)(=O)c1ccc(O)c(NC(=O)CCCC(=O)O)c1
34	C/C(=C\C(=O)c1ccc(C)o1)Nc1ccc(C(=O)O)cc1C
35	COC(=O)[C@@]12CCCCN1C(c1ccc(-c3cccc(Cl)c3)cc1)C1C(=O)N(C)C(=O)C12 (some centres not stated)
36	O=C(NC1CCCCC1)c1cc([N+](=O)[O-])ccc1N1CCCC1
37	Cc1n[nH]c(=O)c2c(NC(=O)COC(=O)COc3cccc(Br)c3)oc(C)c12
38	O=C(C1=C[C@@H](c2ccc(C(F)(F)F)cc2)C[C@@H](OCCCCO)O1)N1CCN(Cc2ccccc2)CC1
39	Cc1ccc(S(=O)(=O)Cn2nnnc2CN(Cc2ccco2)CC2CCCO2)cc1 (configuration not stated)
40	O=C(CSc1nc2ccccc2nc1N1CCCCC1)N1CCN(c2ccccc2)CC1

Compound	31	32	33	34	35	36	37	38	39	40
Sa ugtP lethal	nt	10	7	0	-3&0	11	4	nt	-3	-1
Bead autofluor	1965	3184	nt	9745	nt	4612	?	3811	3390	4214
Mtb hypoxia rep growth	nt	17	6	8	3&6	1	13	nt	5	12
BJeLR lethal	-14	-2	-11	nt	nt	1	2	14	-8	-3
Mtb hypoxia rep	nt	3	16	3	0&2	16	4	nt	8	-3
Sa RN4220 lethal	nt	4.3	6.6	1.6	-6.3&-0.7	3.3	1.2	nt	8.2	-13
PrP 5UTR inh	-4	-22	-18	-10	nt	10	-15	-20	-13	-8

41	Cc1ccc(S(=O)(=O)N2CCOCC2)cc1C(=O)Nc1ccncc1
42	CCOc1cc(/C=C(\C#N)c2nc(-c3cccs3)c(NC(C)=O)s2)ccc1O
43	O=C1CCc2cc(NS(=O)(=O)c3ccc(Br)cc3)cc3c2N1CC3
44	COc1ccc(C=NNc2nc(-c3cccc(S(=O)(=O)N4CCCC4)c3)cs2)cc1OC
45	Cc1ccc(S(=O)(=O)N(C)c2ccccc2C(=O)Nc2c(F)cccc2F)cc1
46	O=C(NCC(c1ccco1)N1CCCC1)c1cc2cc(Cl)ccc2o1 (configuration not stated)
47	NC(=NC1CCCCC1)c1ccc([N+](=O)[O-])cc1
48	COc1ccc(S(=O)(=O)NN=Cc2ccc3c(c2)OCO3)cc1
49	S=C(NCCCN1CCN(CCCNC(=S)NC2CCCCC2)CC1)NC1CCCCC1
50	C/C(CC(=O)Nc1ccc2c(c1)OCCO2)=N\NC(=O)c1ccccn1

Compound	41	42	43	44	45	46	47	48	49	50
Sa ugtP lethal	0	-23	3	-17	15	-1	2	-5	-4	nt
Bead autofluor	5781	2746	6232	nt	4053	?	4743	nt	?	4135
Mtb hypoxia rep growth	-9	6	1	4	-3	3	nt	8	7	nt
BJeLR lethal	nt	17	3	nt	-5	nt	8	nt	nt	-1
Mtb hypoxia rep	1	8	1	12	15	2	nt	-7	7	nt
Sa RN4220 lethal	3.9	-11	18	7.1	5.9	0.7	2.1	-3.9	0.7	nt
PrP 5UTR inh	-46	-26	-3	nt	-16	0	-8	nt	5	-52

51	NCCc1ccc(O)c(O)c1
52	Cc1cccc(N2CCN(Cc3cc(=O)n4ccsc4n3)CC2)c1C
53	Cc1ccc(-n2nc3c(=O)n(C(C)C(=O)NCc4ccccc4Cl)nc(C)c3c2C)cc1 (configuration not stated)
54	O=C(Nc1ccccc1C(=O)N/N=C/c1ccco1)c1ccc(Cl)cc1
55	Cc1onc(-c2ccccc2)c1CNS(=O)(=O)c1ccccc1[N+](=O)[O-]
56	COc1ccc(CSc2nc(C)cc(C)c2S(C)(=O)=O)cc1
57	CN(C)CCN(C(=O)c1ccc2ccccc2c1)c1nc2c(F)cc(F)cc2s1
58	CCOC(=O)C1=C(COc2ccc(C)cc2)NC(=O)NC1c1cc(C)ccc1C (configuration not stated)
59	O=[N+]([O-])c1cc(S(=O)(=O)Nc2cccc(Cl)c2)ccc1N/N=C/c1ccc(N2CCOCC2)cc1
60	COC(=O)C(C(C)C)N(Cc1cc(OC)cc(OC)c1)S(=O)(=O)CCl (configuration not stated)

Compound	51	52	53	54	55	56	57	58	59	60
Sa ugtP lethal	6	6	nt	nt	0	1	1	8	nt	-2
Bead autofluor	5869	2923	5197	2421	3561	2642	6269	2133	5096	3321
Mtb hypoxia rep growth	-2	6	nt	nt	8	-1	-17	1	nt	2
BJeLR lethal	1	2	-2	-11	2	3	-7	5	6	nt
Mtb hypoxia rep	5	-2	nt	nt	5	9	3	-3	nt	-3
Sa RN4220 lethal	8.0	4.1	nt	nt	9.4	3.5	4.4	4.5	nt	5.0
PrP 5UTR inh	-9	-7	-8	-4	1	-17	-11	-17	-29	-22

# Ordered by length of the SMILES (descending): some entries from above.
7	CCC(C(=O)NC1CCCC1)N(C(=O)Cn1nnc(-c2ccc(C)o2)n1)c1ccc(F)cc1 (configuration not stated)
8	Cc1cnc(C(=O)OCC(=O)Nc2cc(S(=O)(=O)N3CCCCC3)ccc2Cl)cn1
45	Cc1ccc(S(=O)(=O)N(C)c2ccccc2C(=O)Nc2c(F)cccc2F)cc1
58	CCOC(=O)C1=C(COc2ccc(C)cc2)NC(=O)NC1c1cc(C)ccc1C (configuration not stated)
49	S=C(NCCCN1CCN(CCCNC(=S)NC2CCCCC2)CC1)NC1CCCCC1
50	C/C(CC(=O)Nc1ccc2c(c1)OCCO2)=N\NC(=O)c1ccccn1

Compound	7	8	45	58	49	50
Sa ugtP lethal	10	8	15	8	-4	nt
Bead autofluor	3533	2734	4053	2133	?	4135
Mtb hypoxia rep growth	10	1	-3	1	7	nt
BJeLR lethal	-9	5	-5	5	nt	-1
Mtb hypoxia rep	5	-4	15	-3	7	nt
Sa RN4220 lethal	-2.0	-1.3	5.9	4.5	0.7	nt
PrP 5UTR inh	-21	-20	-16	-17	5	-52

# Some of the entries so far, with values under each structure.
# Results follow in this order: Sa ugtP lethal | Bead autofluor | Mtb hypoxia rep growth | BJeLR lethal | Mtb hypoxia rep | Sa RN4220 lethal | PrP 5UTR inh
[52] Cc1cccc(N2CCN(Cc3cc(=O)n4ccsc4n3)CC2)c1C
    6 | 2923 | 6 | 2 | -2 | 4.1 | -7
[53] Cc1ccc(-n2nc3c(=O)n(C(C)C(=O)NCc4ccccc4Cl)nc(C)c3c2C)cc1 (configuration not stated)
    nt | 5197 | nt | -2 | nt | nt | -8

# Further compounds follow:
61	O=C1C(Cc2ccc(F)cc2)SC(=Nc2ccccc2)N1c1ccccc1 (configuration not stated)
62	CCOC(CCn1ccc(O)c(Cc2ccc(Cl)cc2)c1=O)OCC
63	CN1C(=O)C2ON(c3ccccc3)C(c3cccs3)C2C1=O (configuration not stated)
64	CCN(CC)S(=O)(=O)c1ccc(OCC2CCCCO2)c([N+](=O)[O-])c1 (configuration not stated)
65	COc1ccc(-c2nc(CS(=O)(=O)CC(=O)NCc3cccc(OC)c3OC)c(C)o2)cc1
66	CCC(=O)Nc1ccc(C(=O)CSc2nnc(-c3ccc(O)cc3)n2CC2CCCO2)cc1OC (configuration not stated)
67	CC1CCc2nc(NC(=O)CSc3nc4ccccc4o3)sc2C1 (configuration not stated)
68	Cc1cc[n+](CC(=O)c2ccc(NC(=O)c3ccccc3)cc2)c2ccccc12

Compound	61	62	63	64	65	66	67	68
Sa ugtP lethal	-1	7	3	6	3	0	0	8
Bead autofluor	2532	3798	2955	5550	6330	20195*	2947	3857
Mtb hypoxia rep growth	4	-5	nt	4	-1	9	-3	6
BJeLR lethal	-4	1	3	-11	-5	5	1	4
Mtb hypoxia rep	10	-8	nt	9	8	13	4	-1
Sa RN4220 lethal	-9.7	4.0	2.1	1.8	0.8	4.2	0.7	0.9
PrP 5UTR inh	-13	5	-12	-21	-4	-4	-1	-17
